# High-throughput results (PubChem BioAssay)
# gsp antagonist: antagonists of gsp mutant (McCune-Albright syndrome) | gsp-mutant cells, cAMP HTRF, 30 min; control for the full effect not named in the record | 340,000 compounds, 0.4% hits | Potency, µM (series often up to 76.9 µM), inactives show top-dose activity change, negative = inhibition, usual class: inhibitors; active = falling curve of any shape with a large fitted effect; inconclusive = falling curve, mostly with a smaller effect; inactive = flat or rising curve; cell line not stated here;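 also: intracellular cAMP measured with PDE inhibitor Ro 20-1724 present during compound exposure; potency is read from the fitted curve at half-maximal effect; % is scaled to controls: 0 for no effect and ±100 for the full control effect; nearly all actives have a fitted effect of over 65% in size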
#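 G418-selected cells were plated in DMEM/10% FBS for 16-24 h at 37C, then treated with compounds plus the PDE inhibitor […] (300 uM solution added) for 30 min at 37C. Intracellular cAMP was measured by HTRF after 30 min lysis at room temperature.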
# ClpP mod: qHTS Assay for Activators of ClpP; ATP-dependent Clp protease proteolytic subunit (Bacillus subtilis (strain 168)), P80244; purified B. subtilis ClpP, FRET peptide cleavage, 20 min; Potency, µM (titrated, usually from 57.5 µM), for inactives: at the top dose activity change, negative = active; 340,000 compounds, 1.9% hits; active = well fitted falling curve with a large enough effect; inconclusive = small, poorly fitted or top-dose-only effect; inactive = no such curve, though single readings can be large or run the other way; also: potency is read from the fitted curve at half-maximal effect; the source files actives as falling curves though it sought activators and does not explain the sign; nearly all actives have a fitted effect of over 65% in size; many hits overshoot -100%
# Target sequence (P80244 whole entry, looked up): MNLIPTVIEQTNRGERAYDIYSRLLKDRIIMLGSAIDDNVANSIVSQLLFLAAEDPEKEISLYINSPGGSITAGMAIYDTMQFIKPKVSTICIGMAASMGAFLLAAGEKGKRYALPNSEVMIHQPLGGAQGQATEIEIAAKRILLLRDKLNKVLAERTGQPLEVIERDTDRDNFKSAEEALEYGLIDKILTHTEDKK
#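 ClpP 10 microg/mL final, pH 8 Tris/KCl buffer with BSA, glycerol, Tween-20; compound pinned in; FRET-FV substrate; RT 20 min; Ex320/Em430; ΔFRET vs ADEP 5.8 microM, DMSO, no enzyme.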
# Sfp inh: blocks B. subtilis Sfp PPTase activity | Biochemical Sfp PPTase activity, qHTS | 310,000 compounds, 3.5% hits | Potency, µM, without a hit: max response, negative = inhibition, most hits filed as inhibitors | AID 1490 | Q9F4F7; active = well fitted inhibition curve with a large enough effect; inconclusive = small, poorly fitted or top-dose-only effect, or another doubt; inactive = no such curve, though single readings can be large or run the other way;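 also: the enzyme is Sfp with the accession as filed and its product quenches rhodamine fluorescence; potency is read from the fitted curve at half-maximal effect; 0% = enzyme reaction without inhibitor and -100% = no enzyme wells; top concentration of the series not given in the record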
#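 Sfp 15 nM + cpd, 15 min RT; start w/ rhodamine-CoA 5 uM, BHQ-2-YbbR 12.5 uM (final); 50 mM Hepes pH 7.6, 10 mM MgCl2, 0.01% NP-40, 0.01% BSA; read 525/598 nm at 0 and 30 min.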
# TRPV1 potentiator: human TRPV1 potentiation; Q8NER1; TRPV1-expressing cells, Fluo-8 calcium influx, capsaicin EC20 potentiation; host cell line not named in the record; control for the full effect not named in the record; potentiation, % at 8.33 µM; 320,000 compounds, 0.02% hits; AID 540277; active means potentiation above 80%; inconclusive means 30% to 80%; inactive means below 30%; also: 0% is about no effect
# Target sequence (Q8NER1 whole entry, looked up): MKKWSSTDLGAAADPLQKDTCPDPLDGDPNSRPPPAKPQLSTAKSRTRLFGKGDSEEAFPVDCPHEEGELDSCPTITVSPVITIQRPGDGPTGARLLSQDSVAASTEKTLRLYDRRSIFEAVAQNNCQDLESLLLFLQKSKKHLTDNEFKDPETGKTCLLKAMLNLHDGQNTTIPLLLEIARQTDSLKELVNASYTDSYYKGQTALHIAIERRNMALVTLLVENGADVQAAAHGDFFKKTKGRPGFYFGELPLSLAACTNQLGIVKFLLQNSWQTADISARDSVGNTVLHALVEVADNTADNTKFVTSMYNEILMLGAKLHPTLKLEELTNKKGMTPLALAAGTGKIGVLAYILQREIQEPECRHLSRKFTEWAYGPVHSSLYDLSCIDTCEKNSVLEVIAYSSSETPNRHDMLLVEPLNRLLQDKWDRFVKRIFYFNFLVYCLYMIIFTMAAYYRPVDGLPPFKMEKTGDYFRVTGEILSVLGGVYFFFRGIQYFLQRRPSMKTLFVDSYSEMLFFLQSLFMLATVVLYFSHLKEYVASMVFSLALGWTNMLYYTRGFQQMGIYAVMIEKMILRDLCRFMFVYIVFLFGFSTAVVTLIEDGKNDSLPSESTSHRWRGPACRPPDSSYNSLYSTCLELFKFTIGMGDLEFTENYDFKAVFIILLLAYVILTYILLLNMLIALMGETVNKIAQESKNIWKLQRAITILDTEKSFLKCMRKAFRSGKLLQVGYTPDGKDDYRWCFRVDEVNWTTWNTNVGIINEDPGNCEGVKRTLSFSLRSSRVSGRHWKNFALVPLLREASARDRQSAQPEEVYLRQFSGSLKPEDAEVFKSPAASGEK
#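 Cells expressing TRPV1 were dye-loaded with Fluo-8 and read kinetically: 10 s baseline, 3 min after compound (agonist portion), then 2 min after EC20 capsaicin (allosteric enhancer portion). Calcium-bound dye fluorescence at 480/520 nm.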
# gsp ag: agonists of gsp mutant (McCune-Albright syndrome); gsp mutant cells, cAMP HTRF, 30 min; control for the full effect not named in the record; Potency, µM (highest dose often 76.9 µM), inactives show at the highest dose activation (cAMP increase), actives largely listed as activators; 340,000 compounds, 0.13% hits; active = well fitted activation curve with a large enough effect; inconclusive = small, poorly fitted or top-dose-only effect, or another doubt; inactive = no such curve, though single readings can be large or run the other way; cell line not stated here;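 also: phosphodiesterase inhibitor Ro 20-1724 added with compounds to block cAMP breakdown; potency is read from the fitted curve at half-maximal effect; nearly all actives have a fitted effect of over 60% in size; about a fifth of the inactives were tested at one dose only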
#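 Cells stably selected in G418 were plated at 2000/well, grown 16-24 hr, then given compounds in DMSO with the PDE inhibitor […] (300 uM solution added) for 30 min at 37C; cAMP was read by HTRF.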
# TRPML1 inh: human mucolipin-1 channel inhibition. AID 624415. TRPML1-inducible cells, Ca2+ dye fluorescence, FDSS; active compounds read low; inhibition of EC80 agonist-evoked calcium signal. 390,000 compounds, 0.02% hits. activity change, negative = inhibition, % (test concentration not listed); in the data active means activity change below about -50%; inconclusive means about -30% to -50%; inactive means above about -30%;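 also: stimulus is agonist 54-4 at its EC80 concentration; % is scaled to controls: 0 for no effect and ±100 for the full control effect; compound concentration not given in the record; the text of the record puts the active cut at -80%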
#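 TRPML1-DL cells, Tet-induced overnight (~16 h, 37 °C) at 1,500 cells/well, were loaded with Ca8 no-wash dye plus quencher for 45-90 min at room temperature. Compounds were pinned during FDSS kinetic reading; agonist 54-4 at EC80 (4 uM final) then added.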
# Menin MLL FP FL: menin-MLL binding inhibition, fluorescein peptide; Fluorescence polarization, fluorescein-MLL peptide displacement from menin; FP activity change, % at 61.4 µM; 290,000 tested, under 10 active; AID 1766; inconclusive = falling polarisation curve, or a change in total fluorescence; inactive = total fluorescence flat and polarisation flat or rising; no compound was filed as active; the % refers to the polarisation; negative = inhibition;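 also: % of control where 0% means no effect; inhibitors lower the polarisation; unlabelled MLL peptide was the positive control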
# Starred values were filed as active, the others as inactive; ? = inconclusive; . = not tested or not shown; [ ] = remark or other dose.
No.	SMILES	gsp antagonist	ClpP mod	Sfp inh	TRPV1 potentiator	gsp ag	TRPML1 inh	Menin MLL FP FL
1	Cc1nn(-c2ccccc2)c(NC(=O)c2cccs2)c(-c2ccc(Cl)cc2)c1=O	-3.3%	-2.2%	2.2%	-8.0	4.8%	4.4	.
2	COc1cccc(-c2nc(CS(=O)(=O)CC(=O)NCCc3ccc(C)cc3)c(C)o2)c1	4.1%	-1.1%	-0.1%	4.6	8.2%	15.4	-3.3
3	Cc1ccccc1OCc1nc2ccccc2c(=O)n1/N=C/c1cccc([N+](=O)[O-])c1	3.9%	0.9%	-17.0%	-2.5	-47.8%[inhibitor]	1.9	-4.1
4	Cc1ccc(/C=C2\CCC(C3CCCC3)C2=O)cc1 (stereo not given)	-6.0%	-18.8%	-1.0%	6.0	9.0%[15.4 µM]	-27.5	2.0
5	NC(=O)C1(c2ccccc2)CCCN1C(=O)c1ccc(Br)cc1 (stereo not given)	9.0%	-0.1%	12.2%	-5.4	-2.3%[15.4 µM]	-10.0	-3.2
6	COc1ccc(S(=O)(=O)n2oc(=O)cc2-c2ccccc2)cc1OC	-10.1%	1.5%	-24.7%	6.5	2.7%	-5.8	5.9
7	O=C(NCc1ccco1)c1cc2n(n1)C(C(F)(F)F)CC(c1ccc(F)cc1)N2 (stereo not given)	8.9%	-1.2%	4.5%	-4.8	-1.7%	0.2	0.8
8	COc1ccc(NC(=S)N2CCC3CC2c2c(Cl)cccc23)c(OC)c1 (stereo not given)	.	-0.3%	.	.	-49.2%[inhibitor]	64.2	.
9	CCOC(=O)C1=C(O)C(=O)C(C(=O)OCC)C1 (stereo not given)	-2.5%	-2.0%	.	.	7.4%	-10.2	.
10	COc1ccc(-n2c(Cc3cc(=O)[nH]c(=O)[nH]3)nnc2SCC(=O)NC2CCCC2)cc1	10.4%	-1.6%	6.8%	.	5.8%	4.7	-1.6
11	O=C(NCc1cccc(Cl)c1)C1CCC(=O)N(CC2CCCCC2)C1 (stereo not given)	9.1%	?	11.5%	5.0	?	-4.0	.
12	COc1ccc(C(=O)N2CCNC(=O)C2CC(=O)Nc2cccc(Cl)c2Cl)cc1 (stereo not given)	-2.5%	-0.1%	7.2%	-2.5	-0.3%[15.4 µM]	-14.7	0.1
13	O=C(COC(=O)C1CC1)Nc1ncc(Cl)cc1Cl	4.0%	.	.	1.9	-11.3%[15.4 µM]	0.8	.
14	Cn1c(=O)[nH]c(=O)c2c1nc(Br)n2CCCCSc1nc2ccccc2o1	?	-0.1%	3.3%	?	-1.3%	11.0	4.1
15	O=C(Nc1ccccc1C(=O)NCc1ccc(Cl)cc1)c1ccco1	-14.3%	28.3%	-10.5%	-0.6	-21.7%	-13.9	1.5
16	COc1ccc(OC)c(NC(=O)C(=O)NNC(=O)COc2ccc(Br)cc2C)c1	-14.8%	12.6%	-10.4%	20.9	3.3%	-10.3	-0.7
17	COc1ccc(OC)c(C2CC(c3ccc(NS(C)(=O)=O)cc3)=NN2C(=O)c2ccccc2)c1 (stereo not given)	?	-2.1%	-1.8%	10.5	?	-1.4	-0.5
18	O/N=C(\COc1ccccc1O)c1ccccc1	7.0%	0.2%	3.5%	-5.5	0.8%	5.4	-0.5
19	CNC(=O)c1ncnnc1N(C)C(=O)NCc1ccccc1	10.4%	1.6%	4.4%	-11.1	-33.8%	8.1	-1.3
20	C=CCn1c(O)c(N=NC(=O)CNC(=O)/C=C/c2ccco2)c2ccccc21	5.9%	0.6%	?	14.1	0.2%	-1.0	-0.5
21	CCc1ccccc1NC(=O)Nc1ccc2c(c1)OCO2	5.4%	-0.4%	9.6%	3.5	-19.2%	5.0	4.2
22	COc1ccc(OC)c(NC(=O)CS(=O)(=O)c2cn(CC(=O)N3CCOCC3)c3ccccc23)c1	0.2%	2.7%	-1.7%	19.2	6.3%[15.4 µM]	22.0	.
23	O=C(Nc1cccc(Cl)c1)c1cc(N=Nc2ccc([N+](=O)[O-])cc2Cl)ccc1O	-20.3%	-5.2%	-24.2%	-12.0	-20.8%	37.1	2.1
24	COc1ccc(-c2c([C@H]3[C@H]4C=CC[C@@H](C)[C@@H]4C(=O)N3Cc3ccccc3)ccc3ccccc23)cc1	5.2%	-22.1%	1.4%	-23.2	.	-0.7	-3.7
25	CCCC(C)NC(=O)COC(=O)c1ccc(Cl)c(S(N)(=O)=O)c1 (stereo not given)	5.1%[15.4 µM]	0.3%	-3.8%	-14.5	-1.9%	-7.3	-3.7
26	Cc1c(N2C(=O)/C(=C/c3ccc(N(C)C)cc3)N(C)C2=S)c(=O)n(-c2ccccc2)n1C	-6.1%	.	.	.	10.9%	-7.3	.
27	Cc1cc(C)n2nc(SCC(=O)c3cc(C)n(CC4CCCO4)c3C)nc2n1 (stereo not given)	-11.9%	.	-26.5%	5.6	-1.1%[15.4 µM]	4.2	3.2
28	O=C1NC2(CCCCC2)C(=O)N1c1cccc(Cl)c1	10.2%	2.2%	2.3%	-23.3	-35.5%[inhibitor]	-22.7	1.8
29	C/C(Cc1ccccc1)=N\NC(=O)CNC(=O)Cc1ccc(Cl)cc1	14.8%	0.0%	21.2%	3.4	-4.2%[15.4 µM]	-3.7	-0.8
30	CCn1c(CNC(=O)c2ccc3c(c2)OCO3)nnc1SCC(=O)Nc1ccccc1F	-10.7%	.	18.1%	-2.7	1.4%[15.4 µM]	-1.4	1.2
31	COc1ccc(OCCCn2ccnc2)cc1	9.0%	.	?	11.3	3.3%	32.7	.
32	COc1ccc(CNC(=O)CN2c3ccccc3S(=O)(=O)c3ccccc32)cc1	-14.9%	-5.9%	9.7%	?	26.7%	-3.4	0.6
33	CCc1cc2ccc(OC)cc2nc1SCC(=O)NNC(=O)c1ccco1	-0.6%	.	-4.9%	8.2	13.8%	6.7	-0.6
34	O=C(NNc1cc(Cl)ccc1Cl)c1c(F)cccc1Cl	-5.5%	.	12.7%	-7.0	1.3%[15.4 µM]	-6.0	1.1
35	COc1ccc(N2CCN(CC(=O)N3N=CCC3c3ccccc3)CC2)cc1 (stereo not given)	8.0%	.	9.0%	4.0	8.0%[15.4 µM]	-18.0	.
36	CCCCCCCN1C(Nc2ccccc2)=NC[C@@H]1C	5.7%	-0.8%	.	?	-1.5%	4.3	.
37	CC(=O)Nc1ccc(SCCC2CCCCN2C)cc1 (stereo not given)	9.2%	.	2.5%	24.8	2.1%	-14.4	-1.2
38	Cc1onc(-c2c(F)cccc2Cl)c1C(=O)NNC(=O)C1CCN(Cc2cccc(F)c2)CC1	8.2%	-4.5%	5.3%	2.3	3.0%[15.4 µM]	-5.0	-14.9
39	CCC(C)OC(=O)C1=C(C)NC(=O)CC1c1ccccc1OC (stereo not given)	2.6%	-3.1%	1.1%	-5.3	-42.1%[inhibitor]	-14.2	-2.7
40	O=S(=O)(/N=C(/c1ccccc1Cl)N1CCOCC1)c1ccccc1	1.8%	1.5%	-0.5%	-0.5	-2.7%	-4.8	1.6
41	O=C(N1CCOCC1)N1CCN(C(c2ccccc2)c2ccccc2)CC1	0.1%	0.2%	8.4%	-26.0	-3.6%	4.2	0.6
42	Cc1nnc(N/N=C/C(C)c2ccccc2)[nH]c1=O (stereo not given)	12.3%	.	79.4µM*	-9.2	4.6%[15.4 µM]	42.3	2.7
43	O=C(Nc1ccc(F)cc1)Nc1nnc(Cc2ccccc2F)s1	2.6%	0.1%	-4.5%	10.9	5.1%[15.4 µM]	15.5	-0.3
44	CC(C)C(NC(=O)c1ccco1)C(=O)NCC(c1ccco1)N1CCCCC1 (stereo not given)	15.1%	-3.1%	1.9%	10.8	0.1%	2.2	10.2
45	CCCOc1ccc(C2C(C(=O)/C=C/c3ccco3)=C(O)C(=O)N2CCN2CCOCC2)cc1OC (stereo not given)	0.9%	.	44.7µM*	?	-1.7%[15.4 µM]	-1.5	?
46	CS(=O)(=O)N1N=C(c2cccs2)CC1c1ccccc1 (stereo not given)	0.7%	-1.4%	-28.0%	6.5	14.2%	-1.1	?
47	CC1Sc2ccc(S(=O)(=O)N3CCC(C(=O)Nc4ccc(Cl)cc4)CC3)cc2NC1=O (stereo not given)	-10.2%	1.8%	11.3%	4.1	-40.1%[inhibitor]	29.3	.
48	COc1ccc(C2=Nc3ccccc3OC2)cc1	-7.0%	1.4%	-19.0%	12.5	-2.1%[15.4 µM]	15.2	0.5
49	Cn1c2ccccc2c(=O)c2c(=O)n(Cc3ccco3)c(COc3ccccc3)nc21	-3.8%	-2.3%	8.91µM*	?	1.7%	-3.9	?
50	Cn1c(=O)[nH]c(=O)c2c1nc(N1CCCCCC1)n2CCOc1ccccc1	-0.3%	.	17.2%	0.4	14.4%	-6.5	-0.5
51	COC(=O)c1[nH]c2cc(OC)ccc2c1NC(=O)CN1CCN(c2cccc(C)c2)C(C)C1 (stereo not given)	?	-20.9%	-7.5%	-6.5	-0.6%	-22.1	0.4
52	COC(=O)C1=C(C)NC(=O)NC1c1ccc(-c2ccc(Cl)cc2)o1 (stereo not given)	-13.9%	-4.7%	-6.7%	-3.6	12.2%	31.5	?
53	C=CCn1c(SCC(=O)Nc2c(C)n(C)n(-c3ccccc3)c2=O)nnc1-c1cccnc1	2.8%	2.8%	.	.	-2.1%[15.4 µM]	0.8	.
54	Cc1ccc(C(=O)N2CC3(C(C)C)CN(C(=O)c4ccc(C)cc4)CC(C(C)C)(C2)C3=O)cc1	-11.8%	0.1%	9.0%	-11.2	24.0%	7.2	3.1
55	N/C(COc1ccc(F)cc1)=N\NC(=O)c1cccnc1Oc1ccccc1	-5.1%	-0.3%	12.1%	2.2	2.2%	6.7	-0.8
56	O=C1CCC(C(=O)Nc2cccc3ccccc23)N1 (stereo not given)	3.5%	-1.7%	15.6%	-6.5	13.7%[15.4 µM]	0.5	2.5

# The order is random; 4.9% or so of the library scored in one or more.
